# Sa RN4220 lethal – kills Staphylococcus aureus RN4220. S. aureus RN4220 growth, OD600, 16 h. inhibition, % (test concentration not listed). 330,000 compounds, 0.33% hits. AID 1259311;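 active = z-score of -3 or lower and OD600 up to 0.18 on both plates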;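 note: plate controls were untreated cells for no effect and reference antibiotic for full effect; stock transfer was 100 nL into about 80 µL; one replicate is shown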
# Bead autofluor – flagged as autofluorescent in microsphere protease counterscreen; fluorescence intensity (test concentration not listed); compound autofluorescence counterscreen, microsphere flow cytometry; hits give high values; 360,000 compounds, 3.1% hits;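 active = at least 3 SD above the mean of all compounds, about 16000 in these data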;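 note: 100 nL of 1 mM stock went into each well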
# PrP UTR inh – suppresses PrP 5' UTR mRNA reporter expression. cell-based PrP 5' UTR mRNA reporter, plate reader. 340,000 compounds, 0.35% hits. inhibition, % (no concentration beside the values). AID 488862;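 active = every replicate at 50% or more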;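 note: 0 = median of the neutral control wells; tested in H4 reporter cells; numbers are from one replicate; inactives centre near -14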
# Sa ugtP lethal – growth inhibition of S. aureus ugtP deletion strain; 330,000 compounds, 0.54% hits; growth inhibition, % (concentration not given with the values); AID 1259309; S. aureus RN4220 ugtP deletion, OD600 growth, 16 h; some inactives read as strong as hits;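 active = z-score under -3 and OD600 up to 0.15 on both plates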;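 note: plate controls were untreated wells for no effect and antibiotic for full effect; wells of about 80 µL received 100 nL stock; the first replicate is given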
# BJeLR lethal – kills HRASV12-expressing BJeLR cells; BJeLR (HRASV12) viability, CellTiter-Glo ATP luminescence, 48 h; reference of the scale not given here; inhibition, % (concentration not given with the values); 300,000 compounds, 0.17% hits;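 active = replicate mean above 50%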;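 note: 50 nL library stock added to about 25 µL; numbers are from one replicate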
# Mtb hypoxia rep – Mtb hypoxia fluorescent reporter inhibition; M. tuberculosis hypoxia-regulated fluorescent reporter, fluorescence; 300,000 compounds, 0.1% hits; fluorescence inhibition, % (no concentration beside the values);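 active = 35 to 45% if threefold the growth effect, above 45% if 1.5-fold the growth effect; inactive = the rest, general growth blockers included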;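 note: wells of about 50 µL received 100 nL stock; 0% = vehicle wells and 100% = reference inhibitor wells; whole bacteria with a GFP reporter of the hypoxia response; strong numbers were not always called active; many hits fall short of the cut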
# Mtb hypoxia rep growth – second read-out of Mtb hypoxia rep, no call of its own (marks repeat the call); growth inhibition, %; measured here: M. tuberculosis growth (absorbance);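 0% = vehicle and 100% = reference antibiotic; read after six days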
# The depositor's hits bear a star; . = not tested or not shown.
SMILES,Sa RN4220 lethal,Bead autofluor,PrP UTR inh,Sa ugtP lethal,BJeLR lethal,Mtb hypoxia rep,Mtb hypoxia rep growth
C/C=C/C(=O)OCC(=O)Nc1ccc(OC)c(OC)c1,3.4,4096,-98,0,-1,11,13
CCc1ccc(NC(=O)CSc2nnnn2C)cc1,-0.6,5199,-43,0,-3,-3,10
CS(=O)(=O)c1ccc2nc(NC(=O)c3ccc(Cn4cc(Br)cn4)o3)sc2c1,0.6,5296,-10,-5,-1,0,-2
O=[N+]([O-])c1cccnc1Sc1n[nH]c(-c2ccc(Cl)cc2)n1,2.9,3476,-43,5,5,-3,0
O=C(NCc1ccccn1)/C(=C/c1ccco1)NC(=O)c1ccccc1,-0.7,2151,-35,1,0,5,0
O=C(COC(=O)/C=C/c1ccc(Cl)cc1Cl)Nc1cc(C(F)(F)F)ccc1N1CCOCC1,1.9,2472,6,-1,-5,6,5
CCOc1ccc(-n2c(=S)sc3c(=O)[nH]c(SCC(=O)NCc4ccco4)nc32)cc1,-5.3,20051*,-13,-7,14,10,18
COc1ccc(-n2c(CN3CCN(C)CC3)nc3ccc([N+](=O)[O-])cc3c2=O)c(OC)c1,0.9,3177,0,-2,8,-8,7
O=C1CN(C(=O)/C=C/c2cc(Br)ccc2F)CCN1,2.5,3875,1,5,-11,-3,5
COc1ccc(Cl)cc1NS(=O)(=O)c1cccc(C(=O)NCC2(N(C)C)CCCCC2)c1,-4.0,6063,-19,1,9,5,3
CCN(CC)c1ccc(NC(=O)CN(C)Cc2cccs2)cc1,4.0,3861,-9,1,-8,8,2
COc1c(Br)cc(C=Nn2c(-c3ccccc3)n[nH]c2=S)c(O)c1Br,7.4,.,.,-1,.,3,3
CC(=NNC(=O)c1ccccc1)c1ccccc1F,5.9,.,.,-4,.,11,4
c1ccc(Cn2ncc3c(N4CCOCC4)ncnc32)cc1,0.8,2477,16,2,-6,-9,-1
Cc1cc(C)c(S(=O)(=O)N=C2C=C(Sc3ncn[nH]3)C(=O)c3ccccc32)cc1C,29,.,.,-7,.,12,13
Cc1ccc(S(=O)(=O)Nc2ccc(NC(=O)c3cccnc3)cc2)cc1,1.4,3277,41,13,8,10,10
Oc1ccc(/C=N/N2CCN(Cc3ccccc3)CC2)cc1,.,4060,-27,.,-12,.,.
Cc1c(N=Cc2cccs2)c(=O)n(-c2ccccc2)n1C,0.5,11679,2,2,-1,5,0
CC(=O)Nc1cccc(NC(=O)CSc2nc(C3CC3)nc3ccccc23)c1,4.4,4980,-12,-2,6,18,6
COc1cccc(C(=O)Nc2cc(=O)n(C)c(=O)n2C)c1OC,1.9,5924,-15,2,2,5,10
CCOC(=O)c1ccccc1NC(=O)c1ccc(Cl)c(S(=O)(=O)N2CCOCC2)c1,1.7,21650*,1,1,.,6,3
N=C(N)Cc1ccccc1Sc1ccccc1,2.0,7231,-4,3,0,10,1
CCC(C)NC(=O)CN1C(=O)NC2NC(=O)NC21 (stereo unspecified),2.4,3425,-11,2,0,8,8
O=C(Cc1cccc(C(F)(F)F)c1)Nc1ccccc1,3.7,5400,-13,-5,-1,9,3
CC1(C)CC(=O)C(C=NCC(O)c2ccccc2)=C(O)C1 (stereo unspecified),4.2,20941*,-37,4,-16,2,4
CN1CCN(c2ccc(F)cc2N)CC1,2.4,4454,-21,2,-3,5,9
CCOC(=O)C(=O)N1CCN(c2cc3c(cc2[N+](=O)[O-])n(C)c(=O)n3C)CC1,13,5100,-3,4,-5,5,15
O=C(CSc1nnnn1-c1cccc2ccccc12)Nc1ccc(C(=O)O)cc1,0.2,3541,-14,3,-2,4,-1
c1ccc(OCCOCCN2CCOCC2)cc1,4.3,10477,-6,6,4,18,7
CCCC(O)(c1ccccc1)C(CN1CCOCC1)c1ccccc1 (stereo unspecified),13,3594,-4,-3,-1,6,5
COc1cc(-c2nnc(CSc3nnc(Nc4ccc(Oc5ccccc5)cc4)s3)o2)cc(OC)c1OC,5.7,2465,-36,-15,-3,0,1
CC=CC=CC(=O)Nc1cccc(C2=NOC3(C2)CC(C(N)=O)N(C(=O)c2cc([N+](=O)[O-])cc([N+](=O)[O-])c2)C3)c1 (stereo unspecified),19,.,.,-1,.,57*,29*
CC(=O)c1cccc(NC(=O)C2CCCN2S(=O)(=O)c2cccc3cccnc23)c1 (stereo unspecified),0.7,5751,13,8,0,.,.
Cc1noc(C)c1COc1ccc(C(=O)OCC(=O)OC(C)(C)C)cc1,-0.7,4319,1,13,2,12,0
CSc1nsc(NN=Cc2ccccc2)c1C#N,8.8,.,.,10,.,1,10
Cc1cc(Br)cc2c(C(=O)NCC3CCCO3)cc(-c3ccccc3)nc12 (stereo unspecified),-8.0,5452,-13,3,-4,2,3
CCN1CCN(C(c2ccccc2)c2nnnn2CCc2ccc(OC)c(OC)c2)CC1 (stereo unspecified),-1.1,4806,-3,3,7,6,5
COc1cc(C=NNC(=O)c2cccs2)ccc1OCc1ccccc1,4.0,.,.,-3,.,9,11
Cc1cc(C)c(OCCn2ccnc2)c(C)c1,2.3,4762,-20,4,10,-18,-20
CN(Cc1cccc(Cl)c1Cl)CC(O)COc1ccccc1 (stereo unspecified),7.8,2957,-30,0,-3,4,-5
CC(C)(C)OC(=O)N1CCCC(C(=O)Nc2ccc(C(=O)N3CCCC3)cc2)C1 (stereo unspecified),8.6,3024,-11,2,.,11,7
c1ccc2c(CSCc3nc4ccccc4[nH]3)cccc2c1,-4.0,21720*,-8,0,8,0,16
CN(C)C(=O)C(=Cc1cccc(Oc2ccccc2)c1)NC(=O)c1ccccc1,-2.7,.,.,-8,.,2,6
Cc1nc2ccccc2c2nc(NC(=O)Cc3ccccc3)nn12,2.0,17263*,-27,-1,7,3,10
O=C(CSCc1ccccc1)NN=Cc1cc2c(cc1Br)OCO2,-7.2,.,.,-9,.,14,1
COc1ccc(NC(=O)CN(C)C(=O)CNC(=O)c2cccs2)cc1,0.9,5031,-10,7,-2,0,-2
COc1ccccc1NC(=S)NC(NC(C)=O)C(Cl)(Cl)Cl (stereo unspecified),3.7,5090,-2,3,12,-6,-1
Cc1ccc(S(=O)(=O)NC(CC(C)C)C(=O)N2CC(C)OC(C)C2)cc1 (stereo unspecified),4.1,6046,2,3,-6,9,7
O=C(OCC(=O)N1CCC(Cc2ccccc2)CC1)c1ccccc1NCCO,-3.1,4910,-3,0,-2,6,0
O=C(c1ccco1)N1CCN(S(=O)(=O)c2ccccc2)CC1,3.1,3779,-5,2,0,-12,6
# The list goes on.
SMILES,Sa RN4220 lethal,Bead autofluor,PrP UTR inh,Sa ugtP lethal,BJeLR lethal,Mtb hypoxia rep,Mtb hypoxia rep growth
CN(C(=O)COC(=O)/C=C/c1ccc(C(F)(F)F)cc1)C1CCS(=O)(=O)C1 (stereo unspecified),0.5,6064,-14,1,2,1,-4
O=C(Nc1ccc(Cl)cc1)NC1CCS(=O)(=O)C1 (stereo unspecified),-2.4,8427,-8,-6,-2,-16,7
COC(=O)c1ccc(OC)c(CSc2nnc(COc3ccc(OC)cc3)o2)c1,8.0,5756,-5,1,2,4,10
COc1ccc(N2CCN(C(=O)c3ccc(Br)cc3)CC2)c([N+](=O)[O-])c1,3.2,4905,-16,12,-6,6,2
COc1ccc(S(=O)(=O)NCCSCc2ccco2)cc1OC,4.6,4310,-40,0,0,5,2
Cc1ccc(N(CC(=O)Nc2cc(Cl)ccc2Oc2ccccc2)S(C)(=O)=O)cc1C,-2.1,4262,-19,-7,-7,.,.
COc1ccc(C(=O)[C@@H]2CC[C@](C)(C(=O)O)C2(C)C)cc1,.,3987,-20,.,7,.,.
CC(=O)Nc1ccccc1OP1(=O)COc2ccccc2OC1,2.2,8708,-19,-6,-1,9,5
CCOc1ccc(N(C(C)C(=O)N/N=C(\C)C(C)(C)C)S(C)(=O)=O)cc1 (stereo unspecified),.,8501,-57,.,-3,.,.
CS(=O)(=O)N1CCCC(C(=O)N2CCC3(CC2)OCCO3)C1 (stereo unspecified),3.3,5596,-3,2,3,10,19
CC(=O)Nc1ccc(NC(=O)C(C)OC(=O)CN2C(=O)C3CCCCC3C2=O)cc1 (stereo unspecified),4.1,4512,-2,3,.,-3,-8
Cc1nc([N+](=O)[O-])cn1CC(=O)c1ccccc1,6.1,5285,-23,3,14,15,3
CC(NC(=O)CSc1nc2ccccc2n1C)c1ccccc1 (stereo unspecified),5.4,3818,-10,3,-2,-5,-3
CC1Cc2ccccc2N1C(=O)CN(C)S(=O)(=O)c1cccc2cccnc12 (stereo unspecified),-1.4,5590,-19,10,-6,.,.
CN1CCN(C(=O)C2=C[C@H](C3CC3)C[C@H](OCc3ccc(CO)cc3)O2)CC1,.,3823,-19,.,-3,.,.
O=C(NC(=S)Nc1ccc(Br)c(Cl)c1)C1CC1,-11,4736,-4,49,0,13,15
COc1ccc(/C(O)=C2/C(=O)C(=O)N(CCN(C)C)C2c2cccnc2)cc1C (stereo unspecified),-0.7,3369,-25,3,2,-1,8
O=C(C1CC(=O)N(C2CCCCCCC2)C1)N1CCC2(CC1)OCCO2 (stereo unspecified),0.1,22759*,-8,4,-3,7,11
COc1c(Cl)ccc(Cl)c1C(=O)NC(=O)N1CCOCC1,4.3,5981,-25,6,-1,7,0
C=CCNC(=O)/C(=C/c1ccccc1OCC)NC(=O)c1ccccc1,.,7904,-12,.,5,.,.
CCCn1c(=O)c(C(=O)NNC(=O)c2ccc(Cl)cc2Cl)c(O)c2ccccc21,30,4962,-10,3,5,2,9
COc1ccccc1NC(=O)CN1CCN(CC(=O)Nc2ccccc2F)CC1,5.1,4789,-8,9,.,2,8
COc1ccc(/C=C/C2=CC(C)(C)NC(=S)N2)cc1OC,8.0,2063,6,8,-6,-4,-1
CC1(C)CC(NC(=O)C(=O)NCCc2ccccc2)CC(C)(C)N1,3.5,3820,-15,2,1,-2,9
O=C(Nc1cccnc1)c1cc(-c2cccs2)on1,2.3,10669,-13,9,2,6,-1
CCOc1cc(C=NNC(=O)c2cccnc2)ccc1OCc1ccc(C(=O)OC)o1,2.9,.,.,7,.,-2,10
CCOC(=O)N1N=C(C)CC1(O)c1ccc(Cl)cc1 (stereo unspecified),3.3,3138,-24,11,-3,4,-2
COCCNC(=O)C1CCC(=O)N(c2ccc(OC)cc2)C1c1ccc(OC)c(OC)c1 (stereo unspecified),3.8,3405,-20,9,-13,21,10
CCOC(=O)c1nnc(-c2ccc(C)cc2)nc1Sc1ccc(Cl)cc1,3.4,2221,5,12,-5,.,.
CC(=NNC(=O)c1ccc(N2CCCC2=O)cc1)c1ccccc1,1.9,.,.,6,.,12,13
CCCNC(=O)C(Cc1ccccc1)NC(=O)c1ccccc1 (stereo unspecified),1.5,3413,-18,0,.,2,11
Cc1ccc(CNC(=O)c2ccccc2-n2cnnn2)cc1,15,5941,-20,19,-2,1,8
O=C(CN(c1ccccc1)S(=O)(=O)c1ccccc1[N+](=O)[O-])Nc1cccnc1,.,5927,-16,.,-4,.,.
Cc1cc(OCCCC(=O)Nc2cc(S(=O)(=O)N3CCOCC3)ccc2N2CCOCC2)ccc1Cl,4.4,3086,-7,5,.,-1,1
Cn1c(=NC(=O)c2cnccn2)sc2ccccc21,5.9,3551,-54,-3,-11,.,.
CC1(C)CC(=O)/C(=C(\O)CCCN2C(=O)c3ccccc3C2=O)C(=NC(C)(C)C)C1,15,.,.,6,.,3,13
CCOC(=O)N1CCN(C(=O)CCn2c(=S)[nH]c3cc(OCC)c(OCC)cc3c2=O)CC1,1.8,.,.,2,-18,-8,-6

# Assay outcomes (PubChem)
